UCH37 inh: human UCH37 deubiquitinating enzyme inhibition. Q9Y5K5. purified proteasome/UCH37, Ub-AMC cleavage fluorescence. inhibition, % (concentration not given with the values). hit rate 0.33% among 330,000. AID 588478;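 active means mean of two replicates above 20%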;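 further: 0% = compound-free wells with enzyme and 100% = wells lacking proteasome; stock transfer was 100 nL into about 20 µL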
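Reagent: Ub-AMC substrate; assay system: Proteasome-associated human UCH37 deubiquitinase; controls: no-proteasome and no-compound wells; read-out: % inhibition of Ub-AMC cleavage fluorescence; timing: 30 min preincubation with enzyme, 25 min cleavage at room temperature; signal: AMC fluorescence from Ub-AMC cleavage, excitation 355 nm, emission 460 nm; buffer or medium: Tris-HCl pH 7.4 plus ovalbumin, ATP-MgCl2, DTT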
T cruzi repl: blocks replication of Trypanosoma cruzi; T. cruzi beta-gal in NIH3T3, luminescence, 90 h; inhibition, % (test concentration not listed); hit rate 1.4% among 300,000;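 active means mean inhibition across valid replicates above about 55%, limit read from the data; inconclusive means mean below that limit but half or more replicates reach it; inactive means mean below it, under half of replicates reach it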;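 further: signal also drops with host cell toxicity which is not excluded here; 0% = plate median of DMSO wells and 100% = zero luminescence signal; higher percent means less beta-gal luminescence so fewer parasites; stock transfer was 50 nL into about 50 µL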
Beta2AR agonist: human beta-2 adrenergic receptor agonism by FAP | P07550 | Am2.2-beta2AR cells, FAP receptor internalization, flow cytometry; reference of the scale not given here | response, % (test concentration not listed) | hit rate 0.43% among 340,000 | AID 504454;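 active means response above a set limit, near 3 SD of response in nonfluorescent compounds, cut at about 42% in these data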;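 further: stock transfer was 100 nL into about 11 µL; a reference agonist was the positive control; negative values mostly stem from fluorescent compounds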
Bfl-1 A1 inh: inhibitors of the anti-apoptotic protein A1, read as caspase activation; caspase activation, % (no concentration beside the values); hit rate 0.066% among 330,000; AID 2462; MEF A1-2A-BIM cells, Caspase-Glo 3/7 luminescence, 3 h; percent of clofoctol response, vehicle zero;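 active means over half of replicate activation scores above 10%, or exactly half above 10 with the replicate mean above 10; inconclusive means replicate mean below 10 yet half the replicates above 10; inactive means over half of replicates below 10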;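 further: wells of about 30 µL received 50 nL stock; many hits fall short of the cut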
Beta cell apopt: blocks beta cell apoptosis | INS-1E cytokine-induced death, ATP luminescence, 48 h; percent of positive-control rescue, neutral wells zero | protection from apoptosis, % (test concentration not listed) | hit rate 0.8% among 300,000 | AID 435005;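 active means all replicates at 75% or more, or half of them and the mean; inconclusive means half reach 75% but not the mean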;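 further: 0% = cytokine-treated negative control wells and 100% = positive control rescue; higher means more ATP so stronger rescue from cytokine killing; wells of about 40 µL received 100 nL stock; the first replicate is given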
RanGTP-Imp inh: disruptors of Ran-importin-beta complex formation – biochemical, FRET, CFP-Ran, YFP-importin-beta, homogeneous, primary screen; inhibition, % (test concentration not listed); AID 2216; cell-free CFP-Ran/YFP-importin-beta FRET ratio; hit rate 1.1% among 300,000;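 active means most replicates above 15%; inconclusive means exactly half above 15%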;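 further: 0% = DMSO wells and 100% = Ran loaded with GDP instead of GTP; wells of about 40 µL received 100 nL stock; the first replicate is given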
LANA-H2B inh: blocks KSHV LANA binding to histone H2A/H2B; hit rate 0.6% among 320,000; inhibition, % (test concentration not listed); cell-free LANA-H2A/H2B peptide, fluorescence polarization; Q9QR71; in the data active means inhibition mostly above about 10%, no sharp cut-off; inactive means mostly below about 6.7%;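 further: stock transfer was 7.5 nL into about 10 µL; 0% = median of vehicle wells and 100% = median of positive control wells; one replicate is shown; the record names a cut of 25% in any replicate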
Target sequence (Q9QR71 whole entry, looked up): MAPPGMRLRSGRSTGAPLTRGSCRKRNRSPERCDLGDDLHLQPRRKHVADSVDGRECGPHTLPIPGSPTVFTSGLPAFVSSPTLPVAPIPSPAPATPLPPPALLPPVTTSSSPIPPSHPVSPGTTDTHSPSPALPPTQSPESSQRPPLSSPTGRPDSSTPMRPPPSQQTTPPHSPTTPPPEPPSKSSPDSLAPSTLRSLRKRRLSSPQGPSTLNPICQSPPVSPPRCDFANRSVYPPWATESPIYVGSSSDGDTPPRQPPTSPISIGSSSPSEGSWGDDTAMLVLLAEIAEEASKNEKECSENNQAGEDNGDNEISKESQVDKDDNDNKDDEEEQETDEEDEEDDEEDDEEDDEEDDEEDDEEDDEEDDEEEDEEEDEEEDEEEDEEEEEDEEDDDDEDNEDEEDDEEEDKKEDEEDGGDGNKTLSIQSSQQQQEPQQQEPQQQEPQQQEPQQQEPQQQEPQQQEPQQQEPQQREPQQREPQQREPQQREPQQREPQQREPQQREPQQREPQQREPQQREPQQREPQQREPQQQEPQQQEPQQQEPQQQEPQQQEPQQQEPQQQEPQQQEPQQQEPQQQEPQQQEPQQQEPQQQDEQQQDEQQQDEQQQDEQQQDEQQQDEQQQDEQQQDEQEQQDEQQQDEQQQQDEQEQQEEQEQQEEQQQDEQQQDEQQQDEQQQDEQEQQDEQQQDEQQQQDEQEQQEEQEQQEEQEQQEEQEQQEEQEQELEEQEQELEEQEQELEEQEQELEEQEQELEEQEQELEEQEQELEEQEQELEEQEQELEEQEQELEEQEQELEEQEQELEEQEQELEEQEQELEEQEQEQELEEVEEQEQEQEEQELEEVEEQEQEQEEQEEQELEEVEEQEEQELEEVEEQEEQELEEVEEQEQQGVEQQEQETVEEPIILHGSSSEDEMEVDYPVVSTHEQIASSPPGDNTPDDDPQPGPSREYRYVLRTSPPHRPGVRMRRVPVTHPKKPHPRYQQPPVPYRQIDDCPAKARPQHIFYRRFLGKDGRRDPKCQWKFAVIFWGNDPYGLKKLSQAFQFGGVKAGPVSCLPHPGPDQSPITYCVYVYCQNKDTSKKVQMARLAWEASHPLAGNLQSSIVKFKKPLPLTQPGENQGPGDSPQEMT
Calb FLC: C. albicans growth modulation with fluconazole. C. albicans CaCi-2 (fluconazole-resistant clinical isolate) + fluconazole, Alamar Blue growth, 48 h. growth inhibition, % (no concentration beside the values). hit rate 0.57% among 300,000;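 active means most replicates above 75%; inconclusive means exactly half above 75%; inactive means most below 75%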;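 further: all wells also contain fluconazole at 8 µg/ml as a sub-toxic cotreatment; 0% = median of DMSO wells and 100% = median of geldanamycin control wells; wells of about 8 µL received 7.5 nL stock; the first replicate is given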
Numbers without * were called inactive; u = inconclusive; x = no result given; & = joins results of further samples. The order is random. Share with any hit: about 4.3%.

Value order – UCH37 inh	T cruzi repl	Beta2AR agonist	Bfl-1 A1 inh	Beta cell apopt	RanGTP-Imp inh	LANA-H2B inh	Calb FLC
> COc1ccc([C@H]2/C=C\CN(S(=O)(=O)c3ccc(C)cc3)[C@@H](C)C(=O)N2Cc2ccc(F)cc2)cc1
    1.2	29	7	0.7	5	3.3	-0.6	-4
> CCOC(=O)C1(Cc2ccccc2C(F)(F)F)CCN(C(C)CCn2cccn2)CC1 (stereo not given)
    6.6	68*	5	0.7	-1	0.2	-4.6	-3
> O=C(Oc1c(CN2CCOCC2)cc(Cl)c2cccnc12)c1ccccc1Cl
    5.2	51	4	-0.4	22	5.4	0.0	100*
> O=C(Nc1nc2c(Br)cccc2s1)C1CC1
    0.9	-18	-1	-0.6	1	0.0	-2.2	-9
> COC(=O)c1ccccc1NC(=O)/C=C/c1cc(OC)c(OC)c(OC)c1
    -28	12	10	0.2	-7	1.0	-3.5	4
> Cc1cc(N=Nc2ccc(C)c(N=Nc3cc(C)c(N)cc3N)c2)c(N)cc1N
    x	14	16	-0.7	6	-1.2	0.0	1
> CC(C)NC(=O)c1ccccc1NC(=O)C(C)Oc1ccccc1 (stereo not given)
    0.8	15	9	0.8	-8	2.1	-0.9	6
> Cn1nnnc1SCC(=O)Nc1nc2c(s1)CCCC2
    2.2	-6	-3	-2.5	0	-3.1	2.1	2
> CCOC(=O)Cn1c(=O)oc2cc(S(=O)(=O)N(C)Cc3ccco3)ccc21
    4.6	8	-3	-0.8	-1	6.8	3.0	-1
> CCc1cccc(NC(=S)N(CCCOC(C)C)C2CCN(C(C)=O)CC2)c1
    0.4	3	1	-0.2	x	-2.8	0.6	-5
> CCn1cc(CN2CCCC(C(=O)Nc3ccc(-c4cscn4)cc3)C2)c(C)n1 (stereo not given)
    1.8	37	-9	-0.4	-4	0.4	-4.1	9
> CC1CCC2(CC1)NC(=S)N(C(C)(C)C)N2 (stereo not given)
    -2.1	-21	10	0.2	-1	0.2	9.3	6
> COc1ccc(CNC(=O)N2CCN(S(=O)(=O)c3ccc(C)cc3C)CC2)cc1
    0.4	17	0	0.7	-8	1.3	-1.4	-2
> CC1Cc2ccccc2N1C(=O)C1CCCN(S(=O)(=O)c2cccc3nsnc23)C1 (stereo not given)
    0.5	9	10	1.0	3	2.2	0.3	16
> Cc1ccc2cc(CCNC(=O)Cc3cccs3)c(=O)[nH]c2c1
    1.8	-8	-2	0.7	x	u	0.2	1

A second format for 2 compounds above.
compound: Cn1nnnc1SCC(=O)Nc1nc2c(s1)CCCC2
  UCH37 inh = 2.2	T cruzi repl = -6	Beta2AR agonist = -3	Bfl-1 A1 inh = -2.5	Beta cell apopt = 0	RanGTP-Imp inh = -3.1	LANA-H2B inh = 2.1	Calb FLC = 2
compound: CCOC(=O)Cn1c(=O)oc2cc(S(=O)(=O)N(C)Cc3ccco3)ccc21
  UCH37 inh = 4.6	T cruzi repl = 8	Beta2AR agonist = -3	Bfl-1 A1 inh = -0.8	Beta cell apopt = -1	RanGTP-Imp inh = 6.8	LANA-H2B inh = 3.0	Calb FLC = -1

Next section.
Value order – UCH37 inh	T cruzi repl	Beta2AR agonist	Bfl-1 A1 inh	Beta cell apopt	RanGTP-Imp inh	LANA-H2B inh	Calb FLC
> CC(=O)Nc1ccc(NC(=O)C/C(C)=N/NC(=O)c2cccc3ccccc23)cc1
    x	1	4	-0.1	-2	1.6	3.4	18
> Cc1ccn(CC(=O)N2CCCC(N3CCN(c4cccc(Cl)c4)CC3)C2)n1 (stereo not given)
    -0.8	-2	-1	0.6	-6	0.2	-2.9	-1
> COc1ccc(S(=O)(=O)NCCC(=O)NCc2ccc(F)cc2)cc1
    3.5	-15	-13	-0.2	3	-3.4	5.3	10
> Cc1ccc(CSCCC(=O)NCCC2=CCCCC2)cc1
    3.4	-9	6	-0.2	1	-0.7	1.6	-31
> CC(C)CC(NC=C1C(=O)OC(C)(C)OC1=O)C(=O)O (stereo not given)
    -1.6	-17	10	0.2	-6	-3.7	1.5	-3
> O=C(Nc1cccc(C(F)(F)F)c1)Nc1ccc(N2CCCC2)c(S(=O)(=O)Nc2ccccc2Cl)c1
    2.2&2.0	54	22	-0.6	103*	5.0	2.0	5
> CC(=O)c1c(C)n(-c2ccc(C)cc2C)c2ccc(O)cc12
    3.1	2	-2	-1.0	-5	-3.6	-4.0	27
> O=C1OC[C@@H]2CCCN2C(=O)[C@@H](CC(=O)N(CCO)Cc2ccccc2)C/C=C\C[C@H]1Cc1ccc(F)cc1
    0.2	x	16	1.0	-1	x	4.6	x
> Cc1cccn2cc(-c3ccc(Cl)cc3)nc12
    -10	5	-6	-8.9	3	-1.0	-0.7	-34
> CN(C)/C=N/C(=S)Nc1ccc(Cl)cc1Cl
    x	0	-3	-0.5	x	6.3	-1.9	-10
> CCOC(=O)c1c(N2C(=O)C3C4C=CC(C4)C3C2=O)sc2c1CCC(C)C2 (stereo not given)
    2.4	2	-7	0.3	x	-1.4	1.9	-3
> O=C(c1ccc(-c2cccc(C(F)(F)F)c2)o1)N1CCOCC1
    0.7	-7	-8	0.5	x	-0.4	3.5	36
> COc1ccc(C)cc1NC(=O)C(OC(=O)c1ccc(Cl)c(S(=O)(=O)N(C)c2ccccc2)c1)c1ccccc1 (stereo not given)
    2.5	31	-1	-0.1	-4	-2.1	5.1	28
> O=C(c1cccc([N+](=O)[O-])c1)N1CCN(c2ccc(Cl)cc2)CC1
    -0.6	13	5	-0.4	-5	-4.3	1.7	-10
> CC(C)CNC(=S)N(CCCN(C)C)Cc1cc2cc3c(cc2[nH]c1=O)OCCO3
    -63	-8	-3	0.4	-5	-2.8	3.7	3

Four entries from above, with tabs.
canonical_smiles	UCH37 inh	T cruzi repl	Beta2AR agonist	Bfl-1 A1 inh	Beta cell apopt	RanGTP-Imp inh	LANA-H2B inh	Calb FLC
Cc1ccc(CSCCC(=O)NCCC2=CCCCC2)cc1	3.4	-9	6	-0.2	1	-0.7	1.6	-31
CC(=O)c1c(C)n(-c2ccc(C)cc2C)c2ccc(O)cc12	3.1	2	-2	-1.0	-5	-3.6	-4.0	27
COc1ccc(C)cc1NC(=O)C(OC(=O)c1ccc(Cl)c(S(=O)(=O)N(C)c2ccccc2)c1)c1ccccc1 (stereo not given)	2.5	31	-1	-0.1	-4	-2.1	5.1	28
CC(C)CNC(=S)N(CCCN(C)C)Cc1cc2cc3c(cc2[nH]c1=O)OCCO3	-63	-8	-3	0.4	-5	-2.8	3.7	3

(listing goes on)
Value order – UCH37 inh	T cruzi repl	Beta2AR agonist	Bfl-1 A1 inh	Beta cell apopt	RanGTP-Imp inh	LANA-H2B inh	Calb FLC
> COc1ccc(-c2c(-c3ccc(OCC(=O)NN)cc3O)n[nH]c2C)cc1
    5.0	1	9	u	1	7.9	7.7	-10
> Cc1cccc(NC(=O)c2ccc(COc3ccccc3)o2)n1
    2.0	-3	6	-4.1	-2	1.2	-5.3	-4
> O=C(Nc1cccc([N+](=O)[O-])c1)c1cnccn1
    3.2	5	-8	-0.9	-6	-1.3	3.6	11
> CC(C)n1c(SCC(=O)Nc2ccccc2)nc2c1c(=O)n(C)c(=O)n2C
    3.3	-8	3	1.9	-2	2.5	-0.4	-14
> O=C(CSCc1cccc(Cl)c1)OCc1nc2ccsc2c(=O)[nH]1
    4.2	-8	3	-0.3	0	6.1	x	21
> Cc1ccccc1NC(=O)CCN1CCN(CCO)CC1
    5.5	-7	-5	-0.4	-8	5.9	4.8	2
> Cn1c(N2CCOCC2)c(C#N)c2ccccc21
    5.7	-7	-10	0.7	-2	1.7	4.5	7
> COc1ccc(NC(=O)C2Cc3ccccc3CN2C(=O)c2ccco2)cc1 (stereo not given)
    -1.2	-8	-3	1.3	x	3.3	-2.2	2
> Cc1ccc(F)cc1NC(=O)COC(=O)C1CCN(c2ccc(C(F)(F)F)cn2)CC1
    2.0	4	-1	0.3	-4	-8.8	14	x
> Nc1nc(CSC(=S)N2CCOCC2)nc(Nc2ccccc2)n1
    -0.3	17	6	-0.1	0	3.3	0.5	4
> CCOc1ccc(NC(=O)CCCN2C(=O)C(c3ccccc3)Oc3cccnc32)cc1 (stereo not given)
    -0.4	-6	-8	-0.3	7	1.3	1.9	-3
> CC(=O)N/C(=C/c1ccccc1)C(=O)NC(Cc1ccccc1)C(=O)O (stereo not given)
    5.6	-12	0	-0.1	-4	-1.4	-3.1	24
> CCc1ccccc1NC(=O)CSc1nc2ccccc2n1CC(=O)N1CCCC1
    3.2	8	0	-1.3	-1	2.1	-4.7	3
> COc1ccc(C2=NN(S(C)(=O)=O)C(c3ccc4nccnc4c3)C2)cc1 (stereo not given)
    5.8	-16	-5	-0.8	-10	2.4	1.4	44
> CCOC(=O)N1CCC(NC(=O)C2=CCN(S(=O)(=O)c3ccc(OC)cc3)CC2)CC1
    0.8	-24	2	0.7	-3	-1.7	0.3	-6
> COc1ccc(CC(=O)Nc2cccc(C(=O)Nc3cccc(C)c3)c2)cc1
    4.0	-5	x	-1.3	-2	2.6	0.1	6
> O=C(CN1CC(=O)Oc2ccccc21)OCC(=O)c1ccccc1
    3.5	-76	10	1.0	-25	-4.9	-2.0	-3
> Nc1nnnn1CC(=O)N/N=C/c1ccccn1
    x	-6	-6	0.5	2	-2.7	-7.8	0
> COc1cc2c(cc1OC)C(C(=O)N(C)Cc1ccccc1)C(c1cccnc1)N(C)C2=O (stereo not given)
    1.7	-9	0	0.0	-2	2.5	x	1
> CCC1C(=O)NCCN1Cc1nc(-c2ccc(C)s2)oc1C (stereo not given)
    -1.8	-17	11	0.3	-4	-1.4	0.1	-8
> O=C(NCCc1ccccc1)c1ccc(-n2cnnn2)cc1
    0.8	-1	11	0.7	1	0.8	2.7	1
> CS(=O)(=O)c1cccc(-c2nnc(NC(=O)C3=COCCO3)o2)c1
    6.8	-2	-5	-0.1	x	-0.5	0.8	-1
> O=C1CSCN1c1cc(Cl)ccc1Cl
    1.6	-4	9	0.0	1	-3.8	5.0	-7
> CNC(=S)N1N=C(c2ccc(C)cc2)CC1c1ccc(N(C)C)cc1 (stereo not given)
    -0.7	6	0	-0.1	-4	2.5	0.4	17
> CCC(=O)Nc1cccc(C(=O)OCC(=O)c2ccccc2Cl)c1
    3.3	-14	-11	-0.8	-10	-6.1	1.0	-14
> CCCCOc1ccc(N(CC(=O)NC2CCCC2)C(=O)CCC(=O)Nc2ccccn2)cc1
    2.6	6	-13	-0.1	-4	-3.8	-0.1	-8
> Cc1c(Cl)cccc1NC(=S)N(CCCN1CCOCC1)Cc1cccs1
    0.3	-6	12	0.7	-4	-2.0	3.0	-7
